# Screening data: PubChem, National Center for Advancing Translational Sciences (NCATS)
# SARS PLP yeast – SARS-CoV PLP inhibition in yeast; S. cerevisiae expressing SARS-CoV PLpro, growth rescue; control for the full effect not named in the record; Potency, µM (top dose mostly 32.9 µM), without a hit: top-dose activity, positive = growth rescue; actives 0.19% (n = 330,000); AID 485353; note: 0% is about no effect; nearly all actives have a fitted effect of over 55% in size; growth read by luminescence after 48 h
# Lassa entry inh – inhibitors of Lassa virus binding or cell entry | actives 1.2% (n = 300,000) | Potency, µM (series often up to 37.9 µM), for the others: at the highest dose activity change, negative = inhibition, usual class: inhibitors | Lassa virus pseudotype entry inhibition, cell reporter; control for the full effect not named in the record; active means well fitted inhibition curve with a large enough effect; inconclusive means small, poorly fitted or top-dose-only effect, or effect the other way; inactive means flat fitted curve, though single readings scatter; tested in HEK293 cells; note: % is set by controls: 0 for no effect and ±100 for the full control effect; nearly all actives have a fitted effect of over 50% in size; luciferase read-out
# Cruzain inh Det – blocks cruzain activity in presence of Triton detergent; P25779; AID 1478; purified cruzain, Z-FR-AMC fluorescence, 0.01% Triton; Potency, µM, inactives show max response, negative = inhibition, most hits filed as inhibitors; actives 0.43% (n = 200,000); active = well fitted curve in the direction sought with a large enough effect; inconclusive = small, poorly fitted or top-dose-only effect, or another doubt; inactive = no such curve, though single readings can be large; an effect the other way counts as inactive or inconclusive;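 note: plate controls were neutral wells for no effect and buffer without enzyme for full effect; nearly all actives have a fitted effect of over 40% in size; top concentration of the series not given in the record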
# Target sequence (P25779 123-467 limits assumed): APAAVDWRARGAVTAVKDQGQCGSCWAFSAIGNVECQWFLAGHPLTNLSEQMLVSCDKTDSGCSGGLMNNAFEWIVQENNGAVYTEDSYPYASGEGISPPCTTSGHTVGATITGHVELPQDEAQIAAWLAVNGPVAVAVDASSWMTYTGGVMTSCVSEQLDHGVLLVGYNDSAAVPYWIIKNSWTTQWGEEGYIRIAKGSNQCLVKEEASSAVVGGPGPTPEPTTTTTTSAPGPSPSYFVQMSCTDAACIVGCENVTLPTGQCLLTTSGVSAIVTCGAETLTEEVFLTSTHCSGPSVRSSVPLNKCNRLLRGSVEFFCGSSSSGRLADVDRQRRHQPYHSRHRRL
#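 In this qHTS format, compounds are incubated with 1.5 nM cruzain for 15 min at room temperature before 2 uM Z-FR-AMC is added. Release of AMC is followed at 360/450 nm, and progress is taken as the 60 s fluorescence difference.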
# Cruzain inh noDet – inhibitors of Trypanosoma cruzi cruzain without detergent; purified cruzain, Z-FR-AMC fluorescence, no detergent; AID 1476; Potency, µM, for inactives: max response, negative = inhibition, hits mostly inhibitors; P25779; actives 2.3% (n = 200,000); active = well fitted curve in the direction sought with a large enough effect; inconclusive = small, poorly fitted or top-dose-only effect, or another doubt; inactive = no such curve, though single readings can be large; an effect the other way counts as inactive or inconclusive;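 note: plate controls were enzyme without inhibitor for no effect and buffer without enzyme for full effect; nearly all actives have a fitted effect of over 40% in size; top concentration of the series not given in the record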
#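 Detergent-free condition (0.00005% Triton X-100) in acetate buffer pH 5.5 with DTT. 1.5 nM enzyme and compound were pre-mixed 15 min, then 2 uM Z-FR-AMC substrate added; reaction progress from fluorescence change between first and third reads (60 s).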
# Marburg entry inh – blocks Marburg virus binding to or entry into cells; Marburg virus pseudotyped entry inhibition, cell reporter; control for the full effect not named in the record; about a third of the inactives were read at about 46 µM; Potency, µM (highest dose often 37.8 µM), for inactives: top-dose activity change, negative = inhibition, usual class: inhibitors; actives 1.8% (n = 300,000); AID 540276; active = well fitted inhibition curve with a large enough effect; inconclusive = small, poorly fitted or top-dose-only effect, or effect the other way; inactive = flat fitted curve, though single readings scatter; tested in HEK293 cells; about a fifth of its hits are not listed in these tables; note: % is set by controls: 0 for no effect and ±100 for the full control effect; luciferase read-out
# 2A StopGo – FMDV 2A StopGo reporter, luciferase signal; Potency, µM (series often up to 57.9 µM), inactives show at the top dose signal change, negative = less light; actives 1.2% (n = 410,000); AID 1159524; human cells with a luciferase reporter of 2A StopGo recoding; control for the full effect not named in the record; active = well fitted falling curve with a large enough effect; inconclusive = small, poorly fitted or top-dose-only effect; inactive = no such curve, though single readings can be large or run the other way; tested in HEK293T cells; note: % is set by controls: 0 for no effect and ±100 for the full control effect; nearly all actives have a fitted effect of over 45% in size; luciferase light after 4 h
# RE007 growth inh – less growth of the S. pombe RE007 Vpr strain; S. pombe RE007 Vpr strain, BacTiter-Glo ATP luminescence, 24 h; control for the full effect not named in the record; Potency, µM (doses to about 92.2 µM), for the others: at the highest dose activity change, negative = less growth; actives 0.21% (n = 360,000); AID 651644; active = well fitted falling curve with a large enough effect; inconclusive = small, poorly fitted or top-dose-only effect; inactive = no such curve, though single readings can be large or run the other way;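 note: % is set by controls: 0 for no effect and ±100 for the full control effect; nearly all actives have a fitted effect of over 50% in size; the assay follows cell death caused by Vpr and the record does not say whether a fall means rescue or toxicity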
#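 Fission yeast strain RE007, carrying one chromosomally integrated HIV-1 vpr copy, was seeded at OD 0.01 in PMG+AL medium with 23 nL pinned compound. After 24 h at 30 °C and 99% humidity, viability was read by BacTiter-Glo luminescence.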
# NS1 function inh – influenza NS1 inhibition | S. cerevisiae slowed by influenza A NS1, growth recovery by OD600 | AID 2326 | Potency, µM (titrated, usually from 46.1 µM), without a hit: at the top dose activity, positive = more growth | actives 0.4% (n = 270,000); note: actives are rising curves; nearly all actives have a fitted effect of over 50% in size
#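 OD600 was taken as the measure of yeast growth restored by compound in an NS1-expressing S. cerevisiae strain. Cells had been washed out of glucose medium and diluted 1:100 into galactose -URA medium, pH 6.0.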
# Active calls of the source: *; u = inconclusive; x = not tested or not shown; & = joins results of further samples; [ ] = remark or other dose. Unless noted, calls come from the whole dose curve; as a rule, active means well fitted rising curve with a large enough effect; inconclusive means small, poorly fitted or top-dose-only effect; inactive means no such curve, though single readings can be large or run the other way. Potency is the fitted concentration of half-maximal effect. Random draw from the library; overall some 4.5% were active at least once.
SMILES,SARS PLP yeast,Lassa entry inh,Cruzain inh Det,Cruzain inh noDet,Marburg entry inh,2A StopGo,RE007 growth inh,NS1 function inh
COc1ccc(Nc2nc(N)nc(CN3CCC(C)CC3)n2)cc1,-1.6%,9.3%,x,x,5.8%,7.5%,-10.2%,x
O=C(c1ccco1)N1CCN(c2ncnc3c2oc2ccccc23)CC1,-11.6%,u,-14.5%,3.3%,u,3.6%,-25.0%,-11.7%
O=C(NCc1ccccn1)c1cc(-c2ccccc2Cl)nc2ccccc12,2.3%,-4.1%,2.3%,-3.9%,-14.7%,-14.5%,20.9%,2.3%
COC(=O)c1cc(C)sc1NC(=O)C1CC=CCC1C(=O)O (configuration not stated),5.1%,1.5%,3.1%,3.5%,19.0%,-0.7%,14.3%,-0.3%
COc1cccc(C2CC(=O)Nc3c2c(=O)n(C)c2ncnn32)c1OC (configuration not stated),x,11.7%[46.1 µM],0.8%,-5.2%,-12.9%[46.1 µM],-12.4%,x,x
COc1ccc(-c2csc(NC(=O)CSCC(=O)Nc3cc(C)on3)n2)cc1OC,-2.1%,u,x,x,u,-28.6%,4.2%,x
COc1cc(/C=N/NC(=S)NC2CC3CCC2C3)ccc1O (configuration not stated),1.7%,x,x,x,x,-2.4%,17.9%,13.6%
O=C(OCc1c(Cl)cccc1Cl)c1ccccn1,-31.3%,0.7%,-4.2%,15.4%,-13.8%,-11.5%,8.9%,-40.3%
Cc1ccc(-n2ncc3c(NCCCn4ccnc4)ncnc32)cc1Cl,x,u,0.0%,12.4%,x,-6.0%,x,x
CCOC(=O)/C(=C/Nc1ccc(F)c(F)c1)[N+](=O)[O-],1.1%,19.4%[46.1 µM],x,x,16.4%[46.1 µM],-7.6%,10.9%,3.7%
COCCNC(=O)c1ccc(-n2c(SCc3cc(F)ccc3F)nc3ccccc3c2=O)cc1,-0.1%,8.6%,-2.9%,u,13.3%,u,10.6%,-0.6%
CC(/C=C1\SC(=S)N(CCC(=O)Nc2cccc(C(=O)O)c2)C1=O)=C\c1ccccc1,-0.4%,2.2%[46.1 µM],x,x,0.5%[46.1 µM],-4.9%,-7.6%,1.9%
NC(=O)c1cc2ccccc2o/c1=N/NC(=O)c1ccccc1,-0.7%,x,x,x,x,-4.9%,-3.1%,-2.1%
N#CC(=Cc1ccncc1)c1ccccc1,x,4.4%,x,x,2.2%,-5.4%,8.9%,x
COc1ccccc1NC(=O)COC(=O)C1=NN(c2ccccc2)C(=O)CC1,-6.7%,13.0%,x,x,18.1%,2.1%,3.8%,x
O=C(Nc1nc2c(s1)CN(Cc1ccccc1)CC2)c1c(F)cccc1F,0.2%,1.0%,x,x,u,40.8%[activator],-7.8%,x
CC(C)[C@H](NC(=O)OC(C)(C)C)C(=O)N/N=C/c1ccc2nccnc2c1,0.4%,x,x,x,x,14.5%,9.6%,3.1%
CCN(CC)c1ccc(/C=N/NC(=O)c2cccc(N3CCCC3=O)c2)cc1,0.0%,9.2%[46.1 µM],x,x,u,24.4%,-7.1%,-0.2%
CCOC(=O)N1CCN(Cc2nc3c(c(=O)[nH]c(=O)n3C)n2Cc2cc(C)ccc2C)CC1,1.2%,-11.0%,2.7%,26.3%,-6.1%,-6.5%,2.2%,-12.8%
Nc1nc(Cl)cc(Sc2ccc3ccccc3c2)n1,-9.7%,10µM*,3.0%,u,-25.5%,-15.5%,-2.1%,-4.1%
CC(NC(=O)c1ccccc1SCC(=O)N1CCCC1)c1ccc(F)cc1 (configuration not stated),-4.7%,-22.0%,x,x,22.1%,-16.3%,18.3%,-7.8%
CC(C)(C)N(Cc1ccccc1)C(=O)COC(=O)CNC(=O)c1ccco1,3.1%,-6.1%,x,x,-17.3%,-12.6%,-0.7%,x
O=C1CC(c2ccccc2)CN1Cc1ccccc1 (configuration not stated),3.0%,4.3%,5.5%,4.0%,-13.5%,11.6%,10.4%,-5.4%
Cc1ccc(-c2nc(CS(=O)(=O)CC(=O)NC3CC3)c(C)o2)cc1,2.1%,x,x,x,x,-20.4%,-5.1%,5.3%
C(#CCN1CCCCC1)COCc1ccccc1,-1.1%,14.6%,x,x,17.1%,14.7%,-6.2%,-0.8%

# Next part
SMILES,SARS PLP yeast,Lassa entry inh,Cruzain inh Det,Cruzain inh noDet,Marburg entry inh,2A StopGo,RE007 growth inh,NS1 function inh
COCCN(C(=O)C(C)C)c1nnc(-c2ccc(C(C)(C)C)cc2)s1,0.1%,-17.0%,x,x,3.6%,2.3%,-0.5%,1.2%
COc1ccc(CC(=O)Nc2cc(Cl)ccc2O)cc1,-16.8%,25.1%,8.8%,-15.6%,-7.0%,x,-2.1%,-48.2%
CC(=O)N1CCN(C(=O)c2ccc(S(=O)(=O)Nc3ccccc3C)cc2)CC1,3.7%,2.7%,x,x,-9.1%[46.1 µM],-9.5%,22.0%,x
CCOC(=O)/C(C#N)=C/c1cn(CCC(=O)O)nc1-c1cccc(Br)c1,0.6%,1.5%,x,x,16.4%[46.1 µM],-17.4%,-7.2%,x
CC(=O)Nc1ccc(-c2csc(NCc3ccco3)n2)cc1,u,-15.5%,-9.5%,-10.3%,u,48.2%[activator],0.6%,23.3%
CC(C)c1ccc(N=Nc2c(O)[nH]c(=O)[nH]c2=O)cc1,0.6%,x,x,x,x,43.7%[activator],7.0%,9.3%
Cc1ccc(-n2c3nc(=O)[nH]c(=O)c-3cc3c(C)nn(-c4ccccc4)c32)c(C)c1,23.7%,u,-5.6%&-0.8%,u,-3.0%[46.1 µM],-17.6%&-4.9%,-2.7%,27.0%
CC(C)(C)OC(=O)N1CCC(c2c(C(=O)NCCN3CCOCC3)cnn2-c2cccc(F)c2)CC1,x,7.8%[46.1 µM],-1.6%,7.4%,x,-9.0%,x,x
CCOc1ccccc1N(C)C(=O)Cn1cnc2onc(-c3ccc(F)cc3)c2c1=O,x,27.1%[46.1 µM],-0.2%,-3.7%,x,0.0%,x,x
CCc1nc(SCC(=O)NCC2CCCO2)c2c(=O)n(C)c(=O)n(C)c2n1 (configuration not stated),-0.1%,x,x,x,x,-20.8%,-3.5%,12.7%
COc1cccc(CNC(=O)C2CCCN(S(=O)(=O)c3c(C)[nH]c(=O)[nH]c3=O)C2)c1 (configuration not stated),-7.0%,6.6%,5.4%,-3.0%,20.8%,x,0.4%,-5.8%
CN(C)c1cc[n+](Cc2c(Cl)cccc2Cl)cc1,-19.5%,u,-2.8%,-13.0%,u,u,u,10.3%
Cc1cccc(-n2c(N)cc(=O)nc2SCC(=O)Nc2nnc(C)s2)c1,4.6%,-0.4%,u,25.1µM*,14.6%,-7.5%,-4.6%,6.1%
Cc1cc(C)cc(NC(=S)NC(=O)CCN2C(=O)c3ccccc3C2=O)c1,16.2%,12.8%,-6.6%,-1.4%,-2.2%[46.1 µM],-9.6%,4.5%,8.8%
CCc1ccc(Cn2c(CNS(=O)(=O)c3ccc4c(c3)CCCC4)nc3cccnc32)cc1,x,-17.1%[46.1 µM],-7.2%,-0.6%,x,64.8%[activator],x,x
O=C(NCc1cccc(Cl)c1)c1cnccn1,0.5%,16.2%,0.3%,0.2%,14.2%,3.7%,-0.6%,-4.1%
CC(=O)N1N=C(c2cccc([N+](=O)[O-])c2)OC1c1ccccc1Cl (configuration not stated),-11.0%,-13.2%,-6.5%,-11.8%,-0.8%,-6.4%,1.0%,-16.8%
CCn1ccnc1CN(C)Cc1cn[nH]c1-c1ccc(F)cc1F,-2.0%,13.0%[46.1 µM],x,x,10.2%[46.1 µM],-14.1%,-4.8%,1.9%
Cc1cc(C)c2nc(N(Cc3cccnc3)C(=O)Cc3ccccc3)sc2c1,x,22.9%[46.1 µM],-1.7%,-25.8%,x,18.3%,x,x
CC12CCC(=O)C=C1CCC1C2CCC2(C)C(O)(C(=O)CO)CCC12O (configuration not stated),x,-12.1%,x,x,-27.9%,-8.4%,0.5%,x
Cc1ccc(C)c(CN2C(=O)c3ccccc3S(=O)(=O)c3ccc(C(=O)N4CCN(c5ccccn5)CC4)cc32)c1,x,u,1.2%,-0.6%,u,-3.6%,x,x
CN1C[C@@H]2C(c3ccc(Cl)nc3)C3(c4ccccc4)CC2(C3)[C@H]1c1ccccc1 (some centres not stated),1.8%,x,0.2%,0.1%,x,-28.9%,-22.0%,6.8%
Cc1nc2cc(OCc3cc(C(=O)NC(C)c4cnn(C)c4)no3)ccc2s1 (configuration not stated),3.8%,2.8%,x,x,-22.4%,-6.7%,0.4%,8.4%
Cc1cccc(C(=O)Nc2ccc(O)cc2C(=O)O)c1,0.6%,3.8%[46.1 µM],x,x,u,8.2%,1.7%,6.2%
O=C(N1CCOCC1)N1CCN(S(=O)(=O)c2ccccc2)C1,2.2%,-9.6%,5.8%,0.0%,-24.4%,0.0%,10.0%,-4.1%
O=C(OCc1nnc(-c2ccccc2)o1)C1=COCCO1,1.3%,u,-0.2%,-11.9%,-2.3%[46.1 µM],0.0%,-14.8%,1.6%

# A draw from above in order of molecular weight, rising:
SMILES,SARS PLP yeast,Lassa entry inh,Cruzain inh Det,Cruzain inh noDet,Marburg entry inh,2A StopGo,RE007 growth inh,NS1 function inh
COc1ccc(CC(=O)Nc2cc(Cl)ccc2O)cc1,-16.8%,25.1%,8.8%,-15.6%,-7.0%,x,-2.1%,-48.2%
CC(=O)N1N=C(c2cccc([N+](=O)[O-])c2)OC1c1ccccc1Cl (configuration not stated),-11.0%,-13.2%,-6.5%,-11.8%,-0.8%,-6.4%,1.0%,-16.8%
CN1C[C@@H]2C(c3ccc(Cl)nc3)C3(c4ccccc4)CC2(C3)[C@H]1c1ccccc1 (some centres not stated),1.8%,x,0.2%,0.1%,x,-28.9%,-22.0%,6.8%
CCOc1ccccc1N(C)C(=O)Cn1cnc2onc(-c3ccc(F)cc3)c2c1=O,x,27.1%[46.1 µM],-0.2%,-3.7%,x,0.0%,x,x
